RanGTP-Impb inh – disruptors of Ran-importin-beta complex formation – biochemical, FRET, CFP-Ran, YFP-importin-beta, homogeneous, primary screen; cell-free CFP-Ran/YFP-importin-beta FRET ratio; 1.1% of 300,000 active; inhibition, % (no concentration beside the values);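 active means most replicates above 15%; inconclusive means exactly half above 15%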;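 further: 0% = DMSO wells and 100% = Ran loaded with GDP instead of GTP; wells of about 40 µL received 100 nL stock; the first replicate is given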
Ecoli rRNA inh – inhibits bacterial ribosomal RNA function over humanized ribosomes | E. coli WT GFP vs humanized-ribosome RFP mutants, fluorescence, 24 h; stronger effect = lower value; DMSO median 0, no signal -100 | GFP signal change (wild-type ribosome), % (concentration not given with the values) | 1.6% of 350,000 active | AID 720706;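 active means significant combined selectivity score with lowered wild-type GFP, culture density cut under 30%, mutant RFP and density less affected; inactive means any of these conditions unmet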; further: one replicate is shown; some compounds called inactive have numbers as strong as hits
ALR H2O2 inh – human ALR oxidase inhibition via reduced H2O2 | purified ALR, DTT oxidation, H2O2 HRP-luminol luminescence | AID 485317 | inhibition, % (test concentration not listed) | P55789 | 3.8% of 290,000 active;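 active means mean and each replicate at 75% or more; inconclusive means only one of the two met; inactive means neither met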;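 further: stock transfer was 7.5 nL into about 7.5 µL; 0% = neutral wells and 100% = wells with inactivated enzyme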
Target sequence (P55789 whole entry, looked up): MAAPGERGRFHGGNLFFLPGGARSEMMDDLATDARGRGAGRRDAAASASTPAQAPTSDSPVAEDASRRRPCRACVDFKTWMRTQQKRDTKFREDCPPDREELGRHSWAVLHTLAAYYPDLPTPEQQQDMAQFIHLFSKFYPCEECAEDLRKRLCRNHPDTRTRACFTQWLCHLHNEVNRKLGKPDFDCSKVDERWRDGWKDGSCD
AF4-AF9 inh – inhibitors of human MLL-AF4/AF9 interaction; P42568; AlphaScreen, biotin-AF4 peptide binding to FLAG-AF9; inhibition, % at 10 µM; 0.47% of 350,000 active;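 active means every replicate reaching a set inhibition limit, whatever the replicate mean, cut at about 25% in these data; inconclusive means mean inhibition reaches that limit but some replicates miss it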;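 further: 0% = plate neutral control median and 100% = total signal loss; the record names both 10 and 1 µM as test concentration; the first replicate is given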
Target sequence (P42568 whole entry, looked up): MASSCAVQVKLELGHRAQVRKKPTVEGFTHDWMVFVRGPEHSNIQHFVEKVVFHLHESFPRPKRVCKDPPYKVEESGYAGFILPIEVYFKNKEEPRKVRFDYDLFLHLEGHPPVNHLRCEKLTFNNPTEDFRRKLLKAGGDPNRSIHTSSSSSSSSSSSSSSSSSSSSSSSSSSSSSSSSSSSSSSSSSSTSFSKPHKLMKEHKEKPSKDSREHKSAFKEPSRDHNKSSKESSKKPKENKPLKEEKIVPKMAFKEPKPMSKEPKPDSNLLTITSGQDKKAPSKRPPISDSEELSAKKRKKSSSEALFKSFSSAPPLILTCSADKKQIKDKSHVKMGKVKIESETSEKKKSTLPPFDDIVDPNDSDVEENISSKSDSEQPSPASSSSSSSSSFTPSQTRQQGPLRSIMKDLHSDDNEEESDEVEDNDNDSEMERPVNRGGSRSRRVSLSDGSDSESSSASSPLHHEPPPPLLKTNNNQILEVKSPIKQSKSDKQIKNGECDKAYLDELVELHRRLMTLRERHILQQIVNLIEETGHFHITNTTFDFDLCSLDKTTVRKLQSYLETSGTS
Calb FLC – affects C. albicans growth with fluconazole | C. albicans CaCi-2 (fluconazole-resistant clinical isolate) + fluconazole, Alamar Blue growth, 48 h | growth inhibition, % (no concentration beside the values) | 0.57% of 300,000 active;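 active means most replicates above 75%; inconclusive means exactly half above 75%; inactive means most below 75%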;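 further: all wells also contain fluconazole at 8 µg/ml as a sub-toxic cotreatment; 0% = median of DMSO wells and 100% = median of geldanamycin control wells; wells of about 8 µL received 7.5 nL stock; the first replicate is given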
FGF22 binding – binders of recombinant human FGF22 by thermal shift. 1.5% of 340,000 active. calls only at 9.99 µM. Q9HCT0. SYPRO orange fluorescence; percent of sucrose octasulfate shift, DMSO zero;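 active means melting point raised past a set limit in the mean and every replicate; inconclusive means no clear call; three in four hits are not shown here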
Target sequence (Q9HCT0 whole entry, looked up): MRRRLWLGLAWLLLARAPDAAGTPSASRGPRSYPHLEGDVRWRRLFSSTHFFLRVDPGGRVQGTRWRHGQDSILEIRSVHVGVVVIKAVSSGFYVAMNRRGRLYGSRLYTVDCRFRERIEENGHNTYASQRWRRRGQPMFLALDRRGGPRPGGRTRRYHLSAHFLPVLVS
T cruzi repl – T. cruzi replication inhibition; T. cruzi beta-gal in NIH3T3, luminescence, 90 h; 1.4% of 300,000 active; AID 1885; inhibition, % (test concentration not listed);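 active means mean inhibition across valid replicates above about 55%, limit read from the data; inconclusive means mean below that limit but half or more replicates reach it; inactive means mean below it, under half of replicates reach it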;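 further: signal also drops with host cell toxicity which is not excluded here; 0% = plate median of DMSO wells and 100% = zero luminescence signal; higher percent means less beta-gal luminescence so fewer parasites; stock transfer was 50 nL into about 50 µL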
Beta apoptosis – beta cell apoptosis inhibition | INS-1E cytokine-induced death, ATP luminescence, 48 h; percent of positive-control rescue, neutral wells zero | protection from apoptosis, % (concentration not given with the values) | 0.8% of 300,000 active;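 active means all replicates at 75% or more, or half of them and the mean; inconclusive means half reach 75% but not the mean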;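 further: 0% = cytokine-treated negative control wells and 100% = positive control rescue; higher means more ATP so stronger rescue from cytokine killing; wells of about 40 µL received 100 nL stock; the first replicate is given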
Ecoli rRNA inh OD600 – recorded beside Ecoli rRNA inh, whose call it bears; OD600 change, %; measured here: OD600 growth;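 optical density of the mix in the first replicate; 0 = DMSO median and -100 = no signal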
Ecoli rRNA inh RFP – also measured in Ecoli rRNA inh; calls as there; RFP signal change, %; measured here: RFP humanized mutant strains;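 first replicate; 0 = DMSO median and -100 = no signal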
* hit, by the source's call; i = inactive; u = inconclusive; x = not tested or not shown.

Value order: RanGTP-Impb inh, Ecoli rRNA inh, Ecoli rRNA inh OD600, Ecoli rRNA inh RFP, ALR H2O2 inh, AF4-AF9 inh, Calb FLC, FGF22 binding, T cruzi repl, Beta apoptosis
CN(Cc1c(C(=O)N/N=C/c2ccc(O)cc2)nnn1-c1nonc1N)C1CCCCC1
→ -3.9, -3, -2, 0.2, 18, 0.9, x, i, 2, 6
O=c1c2ccccc2c(-c2ccccc2)nn1Cc1ccc(Cl)cc1
→ 2.9, x, x, x, -12, x, -4, x, u, -7
CCOC(=O)c1ccc(NC(=O)c2nc[nH]c2C(=O)N(C)Cc2ccccc2)cc1
→ -0.2, -35, -65, 6.3, 2, 7.2, 0, i, -10, 1
COc1ccccc1-c1nnc2sc(COc3ccccc3)nn12
→ 3.9, x, x, x, 4, x, -1, x, -2, -6
O=C(O)c1[nH]c2ccc(Cl)cc2c1CC(=O)N1CCN(c2ccccc2)CC1
→ -2.9, x, x, x, 40, x, -37, x, 10, x
COc1ccc(C(=O)NC(=S)NCc2ccco2)cc1OC
→ -0.4, x, x, x, 2, x, 6, x, 2, -2
CCOc1ncccc1C(=O)Nc1ccc2c(c1)OCO2
→ -0.4, 11, -2, 0.7, -3, -2.4, 10, i, 3, -34
COc1ccc(CCNC(=O)CN2C(=O)COc3ccc(S(=O)(=O)N4CCOCC4)cc32)cc1OC
→ -0.9, 0, 8, -1.3, -2, -1.7, -11, i, -4, -9
CN(C(=S)SCc1ccccc1)C1CCS(=O)(=O)C1 (stereo not given)
→ -0.1, 12, 3, -1.1, -1, -1.5, -15, i, 8, x
O=C(O)c1ccc(NC2=C(Cl)C(=O)c3ccccc3C2=O)cc1
→ -1.4, -20, -18, -11, x, 4.9, -19, i, 55*, 14
OC(CNCC1(N2CCCCC2)CCCCC1)COc1ccc(Cl)cc1Cl (stereo not given)
→ -1.7, -13, -19, 1.0, -4, 0.9, 24, i, 18, 7
COc1ccc(CCNC(=O)c2cc(=O)c3ccc(C)cc3o2)cc1OC
→ 1.6, -28, -26, -6.9, 7, -1.2, 8, i, 11, 1
O=C(c1ccccc1Sc1c(Cl)cccc1[N+](=O)[O-])N1CCOCC1
→ 2.1, -18, -36, -16, -9, 1.6, -6, i, -14, -5
Cc1ccccc1-n1c(C)cc(/C=N/Nc2ccc([N+](=O)[O-])cn2)c1C
→ 1.0, x, x, x, -2, x, -2, x, 14, 9
COc1ccc(N2CCN(S(=O)(=O)c3ccc(OC)cc3)CC2)cc1
→ 0.9, 3, 8, 1.0, 14, 2.8, 1, i, -15, -8
COc1cc(/C=C2/NC(=O)N(Cc3ccccc3F)C2=O)ccc1O
→ u, -24, -29, 2.6, 99*, 6.0, 26, i, -132, -4
COc1cccc(OCCCOc2ccccc2C(C)C)c1
→ 8.2, 7, 3, -13, -12, 0.9, 7, i, 8, 3
CC(C)NC(=O)CSc1nnc(-c2ccc(C(C)(C)C)cc2)n1C
→ -0.4, -5, -9, -1.2, -5, 0.4, 15, i, -11, 3
O=C(CNC(=O)c1ccco1)NCC(=O)OCc1ccc(Cl)cc1Cl
→ 1.1, 5, 6, 0.4, -6, 0.4, 3, i, -7, -3
Cc1ccc2[nH]c(O)c(N=Nc3nc4ccccc4s3)c2c1
→ -12, 5, 5, 1.8, x, 4.3, 38, i, 61*, 48
COc1ccccc1-c1sc2ccccc2c1-c1ccc2c(c1)OCCO2
→ x, 10, 18, -9.2, 34, -1.6, x, i, x, 7
O=C(O)c1ccccc1C(=O)NCc1ccccc1
→ -2.8, x, x, x, x, x, 35, x, -5, -5
COc1ccc(S(=O)(=O)N2CCN(C(=O)[C@H](Cc3ccccc3)NC(=O)c3ccco3)CC2)cc1
→ x, -9, -5, 1.4, -3, 3.0, x, i, x, -3
CC(=O)N(Cc1cc(=O)[nH]c2ccccc12)c1ccc(C)cc1
→ 6.0, x, x, x, 0, x, x, x, -2, 2
COc1ccc(N2C(=O)CC(N(CCc3ccccc3)C(=O)/C=C/C(=O)O)C2=O)cc1 (stereo not given)
→ 0.9, 18, 17, 1.1, -5, -1.3, -9, i, -2, -4
CCN(CC)S(=O)(=O)c1ccc(O)c(C(=O)OCC(=O)Nc2ccc(OC(F)(F)F)cc2)c1
→ 1.0, 6, -8, -6.6, -2, -6.2, 6, i, -7, -2
COC(/C=C/Nc1ccc(Br)cc1)=C(C#N)C#N
→ -0.5, 10, -5, 1.7, 3, 0.8, -20, i, -7, x
Cc1cccn2cc(CCNS(=O)(=O)c3cccc([N+](=O)[O-])c3)nc12
→ 1.0, 2, 4, -6.4, -7, -13, 0, i, 1, -8
COc1ccc(C2=NN(C(C)=O)C(c3cccs3)C2)cc1OC (stereo not given)
→ -4.2, -1, -3, -7.1, -3, -0.9, 5, i, -4, x
CCn1c(SCC(=O)O)nnc1-c1ccccc1
→ -2.0, x, x, x, x, x, -10, x, -5, -5
Cc1ccccc1-n1c(C)nnc1SCC(=O)NNC(=O)c1ccccc1
→ -0.1, 6, -2, 7.4, 5, 1.0, 5, i, -13, -6
O=C(COc1ccc(F)cc1)Nc1ccc2c(c1)OCCO2
→ 1.5, -7, -12, -2.0, -1, 8.6, -9, i, 0, x
CCCNC(=O)COc1cccc(C(=O)NCc2ccccc2)c1
→ 0.4, 5, 9, -0.4, -19, 0.4, 12, i, -10, -6
CC(C)C(=O)N(Cc1cc(=O)[nH]c2ccccc12)c1ccccc1
→ u, x, x, x, -3, x, -13, x, -5, -10
CCCCN(C(=O)CNC(=O)c1ccco1)C(C(=O)NC1CCCCC1)c1cccnc1 (stereo not given)
→ -0.8, x, x, x, -6, 2.1, -2, i, -5, 2
COCCN=C1OC(=O)N2C(=O)C3=C4[C@@H](C[C@H]5C(=O)N(c6ccccc6)C(=O)[C@H]5[C@H]4[C@@]12Cc1ccccc1)[C@H]1C(=O)N(c2ccccc2)C(=O)[C@H]1[C@H]3C
→ -1.8, 0, 10, 0.2, -19, x, -7, i, -12, -5
COc1ccc(C(=O)Nc2ccc(NC(=O)Cc3ccccc3)cn2)cc1
→ 5.6, 6, 8, -0.5, -2, -18, 4, i, 5, x
COc1ccc(C)cc1NC(=O)c1ccc(-c2ccc(C(C)=O)cc2)o1
→ -1.0, x, x, x, -13, x, -23, x, 17, 7
COc1ccccc1CC(=O)Nc1ccc2c(C)cc(=O)oc2c1
→ -1.2, 3, 9, 6.6, 3, 4.3, -2, i, -6, 2
Cc1cccc2c1OCC/C2=N\NC(=O)COc1ccccc1
→ -2.5, 1, 8, -3.5, -10, 0.4, 3, i, 7, 4
CC(Sc1ccccn1)C(=O)Nc1ccc2c(c1)OCO2 (stereo not given)
→ x, 5, 4, -2.5, -12, -3.3, x, i, x, 4
COc1cc(CNc2ccc(N3CCOCC3)cc2)cc(Br)c1OC
→ 4.0, x, x, x, 98*, x, 3, x, 45, 5
Cc1ccc(Nc2nnc(SCC(=O)NCCN3C(=O)CSC3=O)s2)cc1C
→ -1.7, 3, -3, 1.6, 34, 0.2, -10, i, 3, 0
Clc1ccc2nc(-c3cccc(SC4CCCCC4)c3)c(NCc3ccccc3)n2c1
→ 1.3, -10, -2, 4.6, 17, 7.9, -3, i, 26, 30
O=C(NCCc1ccc(C(F)(F)F)cc1)C1CC(=O)N(Cc2ccccc2)C1 (stereo not given)
→ x, 2, 3, -2.6, 1, 1.4, x, i, x, -2
O=C(CCc1c[nH]c2ccccc12)N1CCN(c2ccc(F)cc2)CC1
→ 6.6, -26, -30, -3.5, 42, 3.6, -18, i, 0, 2
CCOc1ccc(NC(=NCc2ccc3c(c2)OCO3)SC2CC(=O)N(c3ccc(C(=O)O)cc3)C2=O)cc1 (stereo not given)
→ u, x, x, x, 47, x, 13, x, 1, -5
Cc1cc(OC(C)C(=O)NCCc2c[nH]c3ccccc23)c2c(C)cc(=O)oc2c1 (stereo not given)
→ 3.3, -9, -11, 0.3, -11, 3.0, -9, i, 23, 6
c1coc(-c2nc(-c3ccco3)c(-c3ccco3)nc2-c2ccco2)c1
→ 60*, x, x, x, 13, x, 43, x, -1, -11
O=C(Nc1ccccc1Oc1ccccc1)c1cccs1
→ -3.0, -15, -42, -8.3, 12, -4.5, 5, i, 1, -5

The listing continues.
Value order: RanGTP-Impb inh, Ecoli rRNA inh, Ecoli rRNA inh OD600, Ecoli rRNA inh RFP, ALR H2O2 inh, AF4-AF9 inh, Calb FLC, FGF22 binding, T cruzi repl, Beta apoptosis
CCNc1nc(NCC)n2c(SCC(=O)Nc3ccccc3C(F)(F)F)nnc2n1
→ -3.3, 6, 10, -1.2, -2, 1.7, -6, i, -7, -4
COc1ccccc1N(CC(=O)Nc1ccccc1C(F)(F)F)S(=O)(=O)c1cccs1
→ x, -16, -26, -4.3, -1, -1.3, x, i, x, 0
COc1ccc(CCNC(=O)C(=O)N/N=C/c2cccs2)cc1OC
→ x, 2, 9, 1.7, 1, -2.3, -23, i, -3, -6
CC1CCCN(C(=O)c2ccc(S(=O)(=O)N3CCC(c4nc5ccccc5s4)CC3)cc2)C1 (stereo not given)
→ -0.9, x, x, x, -4, x, -18, x, 35, 39
COC(=O)C1CN(C(=O)COc2cc(C)c(Cl)c(C)c2)c2ccccc2O1 (stereo not given)
→ u, -16, -36, -3.2, -1, -0.7, 5, i, -11, -11
Oc1ccc(CN2CCN(c3ncccn3)CC2)cc1
→ -6.1, 4, 8, -0.6, 3, -4.6, -6, i, -5, -1
COc1ccc(C2CC2/C(C)=N/OC(=O)C2CC2)cc1 (stereo not given)
→ 7.0, -4, -2, 2.2, -3, -0.8, -16, i, -6, -5
Cc1noc(C)c1C(=O)OCC(=O)NCCc1ccccc1
→ x, 5, -1, 0.0, -7, 1.3, x, i, x, 0
CC(C)CN1C(=O)c2ccc(C(=O)Nc3ccncc3)cc2C1=O
→ -0.8, -25*, -6.1*, -0.7*, -13, 5.5, 1, i, -3, 1
Cn1c(CNC(=O)c2ccc3c(c2)OCO3)nnc1SCC(=O)Nc1ccc(F)cc1
→ -2.7, 6, 8, -0.9, -95, -1.3, 4, i, -3, -1
CCc1ccc(NC(=O)CSc2nc3ccccc3nc2N2CCCC2)cc1
→ 8.6, 2, 0, -2.9, 88*, 1.2, 0, i, 14, 2
CC(C)C(C(=O)NC1CCCCC1)N(CC1CCCO1)C(=O)CNS(=O)(=O)c1ccc(F)cc1 (stereo not given)
→ -1.6, x, x, x, x, x, 30, x, 12, -3
CC(=O)N1c2ccc(S(=O)(=O)N3CCC(C(=O)NCc4ccccc4Cl)CC3)cc2CC1C (stereo not given)
→ -2.6, -10, -13, -0.6, -5, 0.2, 1, i, 5, 1
COc1ccc(N2CCN(C(=O)COC(=O)CCOc3cc(C)ccc3C)CC2)cc1
→ 0.2, -1, -1, -0.6, x, -7.2, -2, i, -11, -3
CCOc1ccc(S(=O)(=O)N/N=C2/CCCC(=O)C2)cc1
→ -1.8, x, x, x, 7, x, u, x, -8, -2
COc1ccc(CCN(C)C(=O)CNC(=O)Cc2cccc3ccccc23)cc1OC
→ u, -14, -11, 4.5, -9, 0.7, -19, i, 12, -3
Cc1c(C(=O)N2CCN(Cc3cccs3)CC2)oc2ccccc12
→ x, -24, -30, -8.2, -2, 2.1, x, i, x, 0

Source: PubChem BioAssay (Broad Institute)

A portion of the library; count on the stated rates, not on these rows.
